Sa ugtP lethal = compounds lethal to S. aureus RN4220 ugtP deletion mutant; OD600 growth, 16 h; some inactives read as strong as hits; growth inhibition, % (concentration not given with the values); 0.54% of 330,000 active; AID 1259309;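 active means z-score under -3 and OD600 up to 0.15 on both plates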;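 further: plate controls were untreated wells for no effect and antibiotic for full effect; wells of about 80 µL received 100 nL stock; the first replicate is given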
Bead autofluor = flagged as autofluorescent in microsphere protease counterscreen; compound autofluorescence counterscreen, microsphere flow cytometry; active compounds read high; 3.1% of 360,000 active; fluorescence intensity (no concentration beside the values);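 active means at least 3 SD above the mean of all compounds, about 16000 in these data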;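 further: 100 nL of 1 mM stock went into each well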
Mtb hypoxia inh = reduces hypoxia-regulated biosensor signal in M. tuberculosis; AID 1159583; M. tuberculosis hypoxia-regulated fluorescent reporter, fluorescence; 0.1% of 300,000 active; fluorescence inhibition, % (concentration not given with the values);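 active means 35 to 45% if threefold the growth effect, above 45% if 1.5-fold the growth effect; inactive means the rest, general growth blockers included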;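 further: wells of about 50 µL received 100 nL stock; 0% = vehicle wells and 100% = reference inhibitor wells; whole bacteria with a GFP reporter of the hypoxia response; strong numbers were not always called active; many hits fall short of the cut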
RN4220 kill = S. aureus RN4220 growth inhibition; inhibition, % (no concentration beside the values); 0.33% of 330,000 active; AID 1259311; OD600, 16 h;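 active means z-score of -3 or lower and OD600 up to 0.18 on both plates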;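 further: plate controls were untreated cells for no effect and reference antibiotic for full effect; stock transfer was 100 nL into about 80 µL; one replicate is shown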
BJeLR lethal = BJeLR cell viability loss; BJeLR (HRASV12) viability, CellTiter-Glo ATP luminescence, 48 h; reference of the scale not given here; inhibition, % (test concentration not listed); 0.17% of 300,000 active; AID 1554;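 active means replicate mean above 50%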;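 further: 50 nL library stock added to about 25 µL; numbers are from one replicate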
PrP UTR inh = inhibition of PrP 5' UTR reporter expression | cell-based PrP 5' UTR mRNA reporter, plate reader | AID 488862 | 0.35% of 340,000 active | inhibition, % (concentration not given with the values);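 active means every replicate at 50% or more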;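 further: 0 = median of the neutral control wells; tested in H4 reporter cells; numbers are from one replicate; inactives centre near -14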
Mtb hypoxia inh growth = recorded beside Mtb hypoxia inh, whose call it bears; growth inhibition, %; measured here: M. tuberculosis growth (absorbance);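 0% = vehicle and 100% = reference antibiotic; read after six days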
* hit, by the source's call; nt = no result given. An unsorted share of the library; any-hit rate near 3.9%.

molecule	Sa ugtP lethal	Bead autofluor	Mtb hypoxia inh	Mtb hypoxia inh growth	RN4220 kill	BJeLR lethal	PrP UTR inh
COc1ccccc1CNC(=O)C(C)c1ccc([N+](=O)[O-])cc1 (centres undefined)	11	2578	5	5	4.9	2	-35
COc1cc(C(=O)NC(=S)Nc2ccc(N3CCCC3)cc2)cc(OC)c1OC	11	1945	11	6	4.1	5	-22
COc1ccc(C=NNC(=S)Nc2ccccc2)cc1COc1ccc(F)cc1F	-8	nt	-1	-5	-4.7	nt	nt
CC(C)CC(=O)/C(=C\c1ccc(Cl)cc1Cl)n1cncn1	1	2103	21	20	22	16	-18
Cc1ccc(C(=O)N[C@H](C(=O)OCc2cc(=O)n3c(n2)sc2ccccc23)C(C)C)cc1	nt	2435	nt	nt	nt	-13	7
CCn1c(SCc2cccnc2)nc2c1c(=O)n(C)c(=O)n2C	-9	10765	4	5	5.4	1	-56
N#Cc1c2n(c3c(=O)n(CC(=O)c4ccc(Br)cc4)cnc13)CCCC2	3	4982	nt	nt	1.4	9	-11
COc1ccc(-n2nc(C(=O)NCC(=O)NCCC3=CCCCC3)c3ccccc3c2=O)cc1	-1	3145	5	-2	3.2	-12	-10
NC(=NOC(=O)c1cc([N+](=O)[O-])ccc1Cl)c1cccnc1	-2	nt	13	12	4.3	nt	nt
O=C1COc2ccc(S(=O)(=O)CCC(=O)NC3CCCCC3)cc2N1	9	4084	11	0	3.4	-7	-3
CN1C(=O)c2c(sc3c2CC(C)(C)SC3)N2CCN=C12	1	2233	nt	nt	0.9	-2	-13
CC=C(C)C(=O)Nc1cccc(C2=NOC3(C2)CC(C(N)=O)N(C(=O)CC#N)C3)c1 (centres undefined)	3	nt	20	3	4.3	nt	nt
COc1ccc(CNC(=O)CCOc2ccc(C(C)(C)C)cc2)cc1	13	5794	nt	nt	2.7	-12	-8
O=C(CC(=O)NC1CCCCC1)NN=Cc1ccccc1Cl	0	nt	3	2	11	nt	nt
CCCC1(C)SC(NC(C)=O)=NN1C(C)=O (centres undefined)	12	3650	nt	nt	3.5	3	-8
O=C(CSc1nc2ccccc2s1)Nc1ccc(N2CCOCC2)c(Cl)c1	-4	2391	6	5	-7.7	11	-7
O=S(=O)(c1ccc(Br)s1)N1CCNCC1	-9	4141	2	-2	2.0	0	-14
COc1ccc2oc(=O)c(C(=O)NCc3cccnc3)cc2c1	-4	3058	1	9	-2.1	4	-15
O=C(OCC(=O)N1CCc2ccccc2C1)c1cc(=O)[nH]c2ccccc12	5	4616	-2	9	4.0	-1	-16
COc1ccc(NC(=O)COc2nsnc2N2CCOCC2)c(OC)c1	-1	4038	3	-14	-0.5	9	-10
CC(C)Cn1c(N)c(C(=O)COC(=O)c2ccc(O)cc2)c(=O)n(C)c1=O	-17	6487	-9	-4	-2.8	2	-21
COC(=O)C1=C(C(=O)OC)[C@@H]2N(C)c3ccccc3[C@@]23C[C@@H](C(=O)OC)N(C(=O)C2CCC2)C3=N1	nt	3552	nt	nt	nt	3	-11
CCN1CCN(C(c2cccs2)C(C)NC(=O)c2c(F)cccc2F)CC1 (centres undefined)	14	16124	6	3	5.1	-7	-18
Cc1cc(C)nc(N/N=C/c2cccc3ccccc23)n1	nt	2088	nt	nt	nt	3	-39
OCC1OC(OCC2OC(OCC3OC(O[C@]4(CO)OC(CO)C(O)C4O)C(O)C(O)C3O)C(O)C(O)C2O)C(O)C(O)C1O (some centres undefined)	0	nt	2	-1	0.8	nt	nt
Cc1ccc2[nH]c(=O)c(CN(C)S(=O)(=O)c3cccc4nonc34)cc2c1	7	5143	8	3	6.1	9	-16
O=C(O)C1C2C=CC(C2)C1C(=O)NCc1ccccc1 (centres undefined)	-3	3927	11	7	7.5	4	-14
Oc1ccc(-c2n[nH]c(=S)n2Cc2ccco2)cc1	-2	10371	-4	-6	3.2	4	-4
COC(=O)c1ccc(-n2nnnc2SCc2ccccc2OC)cc1	15	4024	0	-1	3.3	5	-17
Cc1ccc2cc3cc(C(=O)N4CCCCC4C)oc3nc2c1 (centres undefined)	5	4096	nt	nt	-1.6	7	-71
Cc1ccccc1Nc1nc(N)nc(COC(=O)c2ccc(S(=O)(=O)N(C)C)cc2)n1	4	2766	7	1	2.0	0	-12
CC(C)n1c(=O)[nH]c2cc(C(=O)Nc3ccccc3)ccc21	-5	2652	7	3	4.6	9	-30
O=C(O)c1ccccc1Sc1ncnc2sc3c(c12)CCC3	8	3846	10	8	2.8	6	-33
CCN(CC)CCN(Cc1cc2cc3c(cc2[nH]c1=O)OCCO3)C(=S)NCCCOC	6	6166	14	5	2.1	-3	-24
CN1C(=O)c2cccc(NCCCN3C(=O)c4ccccc4C3=O)c2C1=O	2	10826	-3	-17	-5.9	2	-15
Cc1cc(NC(=O)C2C3C(=O)N(c4cccnc4)C(C(=O)NC(C)(C)C)C34C=CC2(C)O4)no1 (centres undefined)	4	3812	9	0	6.2	-4	-19

Full records from above. Order of values: Sa ugtP lethal, Bead autofluor, Mtb hypoxia inh, Mtb hypoxia inh growth, RN4220 kill, BJeLR lethal, PrP UTR inh
COC(=O)c1ccc(-n2nnnc2SCc2ccccc2OC)cc1 is listed with 15, 4024, 0, -1, 3.3, 5, -17
O=C(O)c1ccccc1Sc1ncnc2sc3c(c12)CCC3 is listed with 8, 3846, 10, 8, 2.8, 6, -33

(next part)
molecule	Sa ugtP lethal	Bead autofluor	Mtb hypoxia inh	Mtb hypoxia inh growth	RN4220 kill	BJeLR lethal	PrP UTR inh
Cc1cc(C)c(C#N)c(SCSCc2ccccc2)n1	35	9965	8	4	9.0	5	-32
Cc1ccc(N(Cc2ccc(C(=O)Nc3ccccc3C(=O)NCc3ccco3)cc2)S(C)(=O)=O)cc1C	-10	25077*	0	3	1.6	-3	-6
Cc1nnc(SCc2cc(=O)[nH]c(/N=C(\N)Nc3ccccc3)n2)s1	nt	4231	nt	nt	nt	17	-13
COc1cccc(/C=N/NC(=O)CCc2ccccc2)c1	nt	5819	nt	nt	nt	3	-10
O=C(CSc1nc2[nH]ncc2c(=O)n1-c1ccccc1)NCc1cccs1	-12	4118	-1	10	0.3	-6	-15
O=C(Nc1ccc(F)cc1)NC1CCN(Cc2c(F)cccc2Cl)CC1	4	4172	-7	-11	-3.2	7	-13
CCOc1cc(N2CCOCC2)c(OCC)cc1NC(=O)C1CC(=O)N(c2ccc(C)cc2)C1 (centres undefined)	11	8006	-4	1	2.3	nt	-23
Cc1ccc(-n2nnnc2SCC(=O)Nc2ccccc2-c2ccccc2)cc1C	-2	2489	6	0	-2.1	-4	-18
c1cn2c(Nc3ccc4c(c3)OCCO4)c(-c3ccc(N4CCOCC4)cc3)nc2cn1	9	3714	0	3	5.4	2	-21
CCc1cc(C(=O)N2CCN(c3ncc(C(F)(F)F)cc3Cl)CC2)sc1C	0	3623	-3	3	2.2	0	-22
O=C(NCC(c1cccs1)N1CCOCC1)c1cccnc1 (centres undefined)	-1	5878	8	0	1.4	-11	-14
O=C(O)C1CCCN1c1nc(C(F)(F)F)nc2ccccc12 (centres undefined)	2	4080	5	9	5.6	-5	-5
CNC(=S)N/N=C/c1ccc(-c2cccc(C(=O)O)c2)o1	nt	4988	nt	nt	nt	28	-18
COc1cc(NC(=O)CCC(=O)N2CCN(S(=O)(=O)c3ccc(C)cc3)CC2)cc(OC)c1	-2	2809	-2	-5	3.7	nt	5
CCS(=O)(=O)c1ccc(O)c(NC(=O)c2cc(-c3ccccn3)nc3ccccc23)c1	-6	8911	-1	-5	1.2	nt	-1
CC(=O)NCc1cc(-c2nn(C)c(=O)c3ccccc23)ccc1C	-2	3572	7	8	4.4	5	-7
O=C(c1cc(F)c(F)cc1Cl)N1CCCc2ccccc21	-1	3837	-1	6	2.7	-2	-6
Cc1cc(S(=O)(=O)Nc2nc(CN3CCOCC3)nc3sc4c(c23)CCCC4)ccc1F	-1	4101	nt	nt	2.9	nt	-10
O=C(Nc1cccc2ncccc12)c1ccccc1F	3	4504	0	1	3.6	-8	-17
Cc1ccc(CN2CC(C(=O)Nc3ccc4c(C)cc(=O)oc4c3)CC2=O)cc1 (centres undefined)	9	4540	2	-4	0.0	-12	-19
COc1ccc(NC(=O)CCS(=O)(=O)c2ccc3c(c2)CCCN3C(C)=O)cc1Cl	1	10008	-5	-8	-1.0	0	-23
Cc1cc(C(=O)N2CCC(Cc3ccccc3)CC2)c(C)o1	4	6143	6	1	-3.6	-2	-11
CCN(CC)C(=O)CSc1nnc(-n2nc(C)cc2C)c2ccccc12	0	9450	10	4	3.3	-14	-24
COc1cc(Oc2nc(C(F)(F)F)nc3ccccc23)ccc1C=O	25	3218	14	12	2.8	0	-1
COc1ccc(CCNC(=O)C2CCCN(C(=O)N(C)C)C2)c(OC)c1 (centres undefined)	10	6149	3	0	2.4	-3	-18
O=C(NCCC1=CCCCC1)C1CC(=O)N(C2CCCCC2)C1 (centres undefined)	-8	5651	-4	0	-3.4	-1	-15
CCOC(=O)Cn1nc(C)c(NC(=O)c2ccc([N+](=O)[O-])c(C)c2)c1C	5	3348	3	7	12	-1	8
CC(C(=O)c1ccccc1)N1C(=O)c2ccccc2C1=O (centres undefined)	5	8858	5	6	7.6	-14	-21
COC(=O)c1cc2c(s1)CS(=O)C2 (centres undefined)	-5	11063	-12	-1	-2.2	3	3
CN(Cc1ccccc1)C(=O)c1[nH]cnc1C(=O)Nc1ccc(Cl)cc1	3	4608	22	9	0.0	nt	-26
Cc1ccc(NC(=O)c2ccccc2NC(=O)c2cccnc2)cc1	13	3112	5	9	0.6	-12	-16
CCOc1ccc(NC(=O)CCNS(=O)(=O)c2ccc3c(c2)CC(C)N3C(C)=O)cc1 (centres undefined)	3	5355	-7	-6	3.6	10	-22
CN(Cc1nc2ccc(Cl)cc2[nH]1)Cc1nc(-c2cnccn2)no1	8	2786	10	1	2.3	-3	-8
CCN(CCn1cccn1)C(=O)CCc1nnc(-c2ccc3c(c2)OCO3)o1	14	2467	14	11	2.3	-1	-22
CCOC(=O)N1CCN(C(=O)c2ccc3c(=O)n(Cc4ccc(OC)cc4)c(=S)[nH]c3c2)CC1	16	3202	nt	nt	-9.8	nt	-27
Cc1ccccc1NC(=O)N(CCc1nc2ccccc2[nH]1)Cc1ccccc1	7	2610	9	11	-0.8	2	-29
Cc1cc2cccc(C)c2nc1SCC(=O)N(C)c1nc(-c2ccccc2)cs1	7	6034	3	9	-3.2	-3	-21
COC(=O)C1NN=C(C(=O)c2ccccc2)C1c1ccccc1 (centres undefined)	11	7495	7	8	4.1	-6	-28
Cc1ccc(C)c(-c2nnc(NC(=O)Cc3ccccc3)o2)c1	-1	5926	-7	9	-1.9	-2	0
O=C(CCSc1nccn1Cc1ccccc1)N1CCOCC1	12	20488*	3	6	3.6	4	-4
COc1cccc(C(=O)CN2CCN(S(=O)(=O)c3cccc([N+](=O)[O-])c3)CC2)c1	5	2040	3	1	-0.7	0	-1
CC(=NNC(=O)c1cccc(S(=O)(=O)N2CCCC2)c1)c1ccncc1	-1	nt	1	6	1.1	nt	nt
CCC(CO)NCc1ccc(OCC(=O)Nc2cccc(C(F)(F)F)c2)c(OC)c1 (centres undefined)	-3	2447	8	7	0.5	4	-44
CC(CCc1ccccc1)NC(=O)COC(=O)c1ccc(F)cc1 (centres undefined)	13	3736	-3	-5	-0.9	-12	-14
N#CC(=NNc1cccc(C(F)(F)F)c1)C(=O)c1csc(-c2cccnc2)n1	30	nt	44*	26*	87	nt	nt
O=c1cc(CN2CCOCC2)c2ccc(O)c(O)c2o1	2	3743	7	4	3.5	-1	-8
CCOc1ncccc1C(=O)Nc1ccc(C)c(S(=O)(=O)N2CCCCCC2)c1	-6	4048	2	3	11	nt	-18
CCOC(=O)c1cc(C)sc1N=CC1C(=O)CCCC1=O	11	nt	1	7	5.3	nt	nt
Cc1ccccc1-n1nc2c(c1NC(=O)CC(C)C)CS(=O)C2 (centres undefined)	4	5426	6	3	1.8	-4	-13

Source: PubChem (several laboratories)
